Compound activity deposited in PubChem BioAssay by several laboratories.
Rce1 inhib: blocks yeast Ras-converting enzyme. Q03530. yeast membranes, quenched prenylated peptide cleavage fluorescence. calls only. 290,000 compounds, 0.27% hits. AID 2563;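 active means fall in fluorescence gain of 50% or more versus controls, with final raw signal at or below 3038400; inconclusive means same 50% fall but final raw signal above 3038400; inactive means fall in fluorescence gain under 50%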;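 further: plate controls were neutral control wells for no effect and wells lacking membranes for full effect; tested at 10 µM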
eIF4H FP inh: inhibitors of RNA binding by human eIF4H; Q15056; eIF4H fluorescence polarization binding assay; inhibition, % at 35 µM; 290,000 compounds, 0.94% hits; AID 2012;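 active means 50% or more with normal probe brightness, or confirmed in later tests; inconclusive means above 50% with abnormal brightness, or retests that disagree; inactive means below 50% or failed in later tests; about a fifth of its hits are not listed in these tables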;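 further: calls also rest on retests at 20 µM and on dose response follow-up; 0% = protein and probe with vehicle and 100% = probe without protein; strong numbers were not always called active; many hits fall short of the cut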
MT1-MMP act inh: inhibitors of human MT1-MMP activation; AID 651647; 360,000 compounds, 0.061% hits; GFP/RFP ratio change, % at 20 µM; P50281; HT1080 RFP-PRO-GFP cells, GFP/RFP ratio fluorescence, overnight; percent of plate control window, DMSO zero;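 active means GFP/RFP ratio change of at least 30% with cell ATP level not reduced by more than half and red fluorescence within 50% of control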; further: strong numbers were not always called active
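Compound: 20 µM single dose, 1% DMSO / System: HT1080 RFP-PRO-GFP cells / Controls: DMSO and RFP-L50D-GFP cell wells / Read-out basis: GFP/RFP fluorescence ratio / Schedule: overnight compound exposure at 37 °C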
PABP polyA inh: PABP-poly(A) binding inhibition | P11940 | PABP-poly(A) RNA binding, fluorescence polarization | inhibition, % at 35 µM | 290,000 compounds, 1% hits | AID 2014;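 active means 50% or more with normal probe brightness, or confirmed in later tests; inconclusive means above 50% with abnormal brightness, or retests that disagree; inactive means below 50% or failed in later tests; about a fifth of its hits are not listed in these tables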;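 further: calls also rest on retests at 20 µM and on dose response follow-up; controls were probe without protein and protein plus probe with vehicle; some compounds called inactive have numbers as strong as hits; many hits fall short of the cut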
Target sequence (P11940 whole entry, looked up): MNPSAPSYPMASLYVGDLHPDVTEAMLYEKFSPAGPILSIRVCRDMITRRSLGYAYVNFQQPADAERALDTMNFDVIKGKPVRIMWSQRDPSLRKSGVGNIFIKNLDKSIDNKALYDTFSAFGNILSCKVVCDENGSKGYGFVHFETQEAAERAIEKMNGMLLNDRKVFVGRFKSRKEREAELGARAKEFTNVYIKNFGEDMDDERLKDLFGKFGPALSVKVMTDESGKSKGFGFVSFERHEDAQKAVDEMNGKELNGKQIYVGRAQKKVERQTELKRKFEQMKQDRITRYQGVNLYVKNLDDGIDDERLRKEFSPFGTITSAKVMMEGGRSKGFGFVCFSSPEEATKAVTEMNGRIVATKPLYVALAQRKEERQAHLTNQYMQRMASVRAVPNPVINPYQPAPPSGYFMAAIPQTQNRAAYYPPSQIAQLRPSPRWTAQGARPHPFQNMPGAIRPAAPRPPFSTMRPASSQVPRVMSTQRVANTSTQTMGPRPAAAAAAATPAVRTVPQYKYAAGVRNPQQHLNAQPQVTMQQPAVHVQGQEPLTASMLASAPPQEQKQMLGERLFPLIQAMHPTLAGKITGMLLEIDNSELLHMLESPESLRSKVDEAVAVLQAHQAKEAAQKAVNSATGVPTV
CSC inhib: cancer stem cell inhibition; AID 2717; 300,000 compounds, 1.1% hits; cancer stem cell-like cells viability, luminescence; inhibition, % at 7.5 µM;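 active means mean at 75% or more and at least half the replicates too; inconclusive means mean and replicates disagree; tested in HMLE shEcad cells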;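 further: 0% = median of negative and 100% = median of positive control wells; the first replicate is given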
HIV Env fusion: HIV envelope-mediated fusion inhibition. HeLa-JRFL Env/CEM21 cell fusion, luciferase. inhibition, % at 12.3 µM. 360,000 compounds, 1.1% hits. AID 651610;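 active means mean replicate inhibition score of at least 50 and every replicate individually at or above 50; inconclusive means only one of the two criteria met; inactive means mean below 50 and not all replicates reaching 50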;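 further: 0% = plate neutral controls and 100% = maraviroc near 300 nM; one replicate is shown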
Yeast UUG start: alters start codon recognition fidelity in yeast | S. cerevisiae UUG-firefly luciferase reporter, luminescence/redox ratio | activity score, % at 18.7 µM | 350,000 compounds, 0.13% hits;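 active means replicate mean at a twofold rise or more, about +100% in these data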;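 further: firefly luciferase made from a UUG start codon reports start codon fidelity; reporter light over untreated wells divided by growth signal over untreated wells; some hits fall short of that in this replicate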
eIF4H FP inh retest: second read-out of eIF4H FP inh, no call of its own (marks repeat the call); inhibition, %; compound at 20 µM; confirmation average;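 mean of two retest wells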
PABP polyA inh retest: second read-out of PABP polyA inh, no call of its own (marks repeat the call); inhibition, %; compound at 20 µM; confirmation repeats;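 mean of two retest wells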
MT1-MMP act inh RFP: second read-out of MT1-MMP act inh, no call of its own (marks repeat the call); RFP signal change, %; measured here: RFP expression control read;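 0 = vehicle wells; hits needed this value within 50% of zero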
An asterisk follows results filed as active; i = inactive; u = inconclusive; x = not tested or not shown; + = active, no number; & = joins results of further samples; [ ] = dose if it differs, or a comment. Only part of the results is shown (hit frequency here may not be typical).

SMILES	Rce1 inhib	eIF4H FP inh	MT1-MMP act inh	MT1-MMP act inh RFP	PABP polyA inh	CSC inhib	HIV Env fusion	Yeast UUG start	others
COc1cc2c3nnc(-c4ccc(F)cc4)c-3cn(Cc3ccccc3)c2cc1OC	i	-2.7	-90.0	0.4	7.4	37.6	-9.4	-13.1
Cc1cccc(OCCCCCN2CCOCC2)c1	i	3.0	-1.1	2.8	4.1	7.7	7.7	-9.4
CC(C)Oc1ccc(S(=O)(=O)N2CCOCC2)cc1NC(=O)CSc1nnc(C2CC2)n1C	x	x	-2.6	0.9	x	x	-37.3	-2.9
COc1ccc(C(=O)NNC(=O)Cc2ccc([N+](=O)[O-])cc2)cc1	i	0.7	-0.4	-4.8	-12.2	-4.8	3.2	-17.9
Fc1ccc(N2Cc3ccsc3C=N2)cc1	i	-7.9	3.7	2.2	33.2	2.3	1.8	x
O=C(C1=C[C@H](c2ccc(C(F)(F)F)cc2)C[C@H](OCCCCO)O1)N1CCOCC1	i	2.5	-0.8	-0.9	3.5	-0.9	-16.0	-16.3
COc1ccc(CNC(=O)COC(=O)c2n[nH]c3ccccc23)cc1	i	-7.2	0.0	-1.0	9.1	-9.2	x	2.9
COc1ccc(/C=N/NC(=O)C2C3CCCCC32)cc1OC (centres undefined)	i	-1.7	0.0	2.3	1.2	9.5	-120.5	x
O=C(C[n+]1cc(-c2ccc(Cl)cc2)n2c1CCC2)Nc1nc(-c2ccc(F)cc2)cs1	x	-7.0	0.4	4.6	-25.0	-2.5	-5.6	x
Cc1ccc(NC(=O)C2CC(=O)N(C(C)C)C2)cc1Cl (centres undefined)	i	3.6	5.8	4.1	-1.9	-7.9	1.1	-12.4
O=C(O)CSCC(=O)Nc1ccccc1	i	x	5.0	-1.8	x	11.1	x	4.0
CCN(C(=O)c1ccc(N2CC3CC(C2)c2cccc(=O)n2C3)c(NC(=O)c2ccncc2)c1)c1cccc(C)c1 (centres undefined)	i	-14.8	1.1	2.3	-10.8	1.3	-5.9	-15.8
O=C(NCc1ccccc1)c1nncc(-c2ccccc2)n1	x	x	3.0	3.0	x	-14.3	-22.3	-22.9
O=S(=O)(CCN1CCN(c2ccccn2)CC1)c1ccc(F)cc1	i	-6.2	1.0	2.9	-0.4	4.3	-0.1	-6.8
CCOC(=O)c1ccc(NC(=O)Cn2nnc(-c3ccccc3C)n2)cc1	i	-15.0	-1.9	-1.5	-8.6	16.0	x	-8.3
COc1ccc(CCNC(=O)C(=O)c2c(C)[nH]c3ccccc23)cc1	i	-7.1	-2.0	-1.5	1.9	-11.6	1.2	-11.3
CC(C)NC(=O)c1nn(C)c2ccccc12	i	-1.1	1.6	3.0	-1.7	-7.1	x	x
COc1ccc(CNC(=O)N2[C@H]3CC[C@@H]2C=C(c2ccc(F)cc2OCc2ccccc2)C3)cc1OC	x	x	9.2	8.2	x	x	0.0	-5.1
CC(NC(=O)C1CCN(S(=O)(=O)c2cc([N+](=O)[O-])ccc2Cl)CC1)c1ccccc1 (centres undefined)	i	-4.5	-2.3	-8.8	-1.3	x	-11.9	x
COC(=O)C1=C(C)NC2=C(C(=O)CC(C)(C)C2)C1c1cn(Cc2ccc(Br)cc2)nc1-c1ccccc1 (centres undefined)	i	-9.3	-11.8	-27.2	-3.0	14.1	x	-18.1
C=C(C)c1cccc(C(C)(C)NC(=O)NCC2CCCO2)c1 (centres undefined)	i	2.3	3.7	0.0	-1.7	4.9	x	-7.8
O=C1c2ccncc2C(=O)N1c1cccc(Cl)c1	i	-0.4	-0.2	0.7	-11.1	-6.4	-1.5	x
Cc1ccc(NC(=O)CSCC#N)cc1	i	3.3	-0.9	-0.6	-6.2	-9.5	-14.3	-14.7
Cc1ccc(C(=O)c2c3ccc([N+](=O)[O-])cc3[n+]([O-])n2CCC(N)=O)cc1	i	36.2	x	x	1.0	6.4	-19.0	16.1
C=CCn1c(SCC(=O)Nc2nccs2)nnc1-c1ccco1	i	-11.7	1.1	0.6	12.0	2.0	-44.3	1.0
CCC(C)[C@H](NC(=O)N1CCCCC1)C(=O)OC (some centres undefined)	i	0.5	-5.0	-2.1	-5.8	-9.1	-5.2	-13.4
COC(=O)C1CCN(C(=O)COC(=O)c2ccc(N3CCCC3=O)cc2)CC1	x	x	-2.1	1.5	x	-5.5	13.6	12.2
COc1ccc(C(O)c2ncc(C(F)(F)F)cc2Cl)cc1 (centres undefined)	i	-3.5	-1.5	3.3	12.1	-3.5	3.1	-12.2
FC(F)(F)Oc1ccccc1C(c1nnnn1Cc1ccccc1)N1CCN(C/C=C/c2ccccc2)CC1 (centres undefined)	x	x	-13.7	-20.9	x	x	-9.3	-13.0
NC(=O)C1CCN(c2cc(N3CCOCC3)ccc2[N+](=O)[O-])CC1	i	-5.3	2.1	4.1	-9.5	-15.4	-5.9	1.3
Cc1ccc(S(=O)(=O)Nc2ccc3c(c2)nc(CCN2CCN(c4ccccn4)CC2)n3C)cc1	i	-7.8	3.8	-3.0	-8.8	-10.2	5.7	-7.4
O=c1cc(NC2CCCCCC2)[nH]c(=O)[nH]1	i	9.0	5.9	1.6	3.5	x	x	-16.0
CCCCOc1ccc(C(=O)NCC(=O)NCC(=O)OCC)cc1	i	3.0	-0.6	-5.1	5.5	23.0	-87.8	-9.8
CN(CC(=O)Nc1ccc(Cl)c(Cl)c1)CC(=O)Nc1ccc2c(c1)OCO2	x	x	-2.5	-0.7	x	80.1*	2.5	-13.6
COC(=O)c1sccc1NC(=O)c1csc(C)c1	i	3.6	-9.5	1.1	-5.5	17.7	-1.4	-1.8
COc1ccc(Cc2nc3ccc(C(=O)N4CCCC4)cc3o2)cc1	+	-9.1	3.4	0.5	5.8	-1.0	x	-18.0
Cc1ccccc1C(=O)NC1CCN(CC(=O)N2CCCCC2C)CC1 (centres undefined)	i	6.9	2.2	2.4	0.8	-9.4	-4.3	-13.9
CCCCn1c(=S)[nH]c2c(=O)n(C)c(=O)n(C)c21	x	x	3.2	0.8	x	x	2.9	-11.6
COc1ccc(NC(=O)CSC(C)c2nc3ccccc3c(=O)[nH]2)cc1 (centres undefined)	i	10.1	-3.2	1.5	9.7	-4.0	7.2	-6.4
Cc1ccc(CN2C(=O)CCC2(C)C(=O)NCc2cccnc2)cc1 (centres undefined)	i	-3.0	-0.8	7.0	2.6	x	-49.8	-5.8

Quoted at random: 2 records from the list
SMILES	Rce1 inhib	eIF4H FP inh	MT1-MMP act inh	MT1-MMP act inh RFP	PABP polyA inh	CSC inhib	HIV Env fusion	Yeast UUG start	others
CN(CC(=O)Nc1ccc(Cl)c(Cl)c1)CC(=O)Nc1ccc2c(c1)OCO2	x	x	-2.5	-0.7	x	80.1*	2.5	-13.6
CCCCn1c(=S)[nH]c2c(=O)n(C)c(=O)n(C)c21	x	x	3.2	0.8	x	x	2.9	-11.6

The main list resumes; the six compounds before the break are reprinted first.
SMILES	Rce1 inhib	eIF4H FP inh	MT1-MMP act inh	MT1-MMP act inh RFP	PABP polyA inh	CSC inhib	HIV Env fusion	Yeast UUG start	others
COC(=O)c1sccc1NC(=O)c1csc(C)c1	i	3.6	-9.5	1.1	-5.5	17.7	-1.4	-1.8
COc1ccc(Cc2nc3ccc(C(=O)N4CCCC4)cc3o2)cc1	+	-9.1	3.4	0.5	5.8	-1.0	x	-18.0
Cc1ccccc1C(=O)NC1CCN(CC(=O)N2CCCCC2C)CC1 (centres undefined)	i	6.9	2.2	2.4	0.8	-9.4	-4.3	-13.9
CCCCn1c(=S)[nH]c2c(=O)n(C)c(=O)n(C)c21	x	x	3.2	0.8	x	x	2.9	-11.6
COc1ccc(NC(=O)CSC(C)c2nc3ccccc3c(=O)[nH]2)cc1 (centres undefined)	i	10.1	-3.2	1.5	9.7	-4.0	7.2	-6.4
Cc1ccc(CN2C(=O)CCC2(C)C(=O)NCc2cccnc2)cc1 (centres undefined)	i	-3.0	-0.8	7.0	2.6	x	-49.8	-5.8
CC(=O)n1cc([C@H]2C=C(C(=O)N3CCOCC3)O[C@@H](OCc3ccc(CO)cc3)C2)c2ccccc21	i	-8.0	-1.5	3.6	9.4	11.1	-14.2[16.7 µM]	0.4&-14.5
COc1ccc(-c2cc(-c3ccccc3)c(C#N)c(=S)[nH]2)cc1	i	2.4	-4.0	-4.7	-6.3	7.3	15.1	x
CN(Cc1cccs1)S(=O)(=O)c1cccs1	i	-7.7	-3.7	0.8	-0.5	-6.7	-31.5	11.1
N#CC1=C(N)OC2=C(C(=O)CC(c3ccccc3)C2)C1c1ccoc1 (centres undefined)	i	94.2	-6.4	-1.8	17.6	2.6	x	x	eIF4H FP inh retest=-7.0;PABP polyA inh retest=7.3
CCCc1cc(=O)[nH]c(SCC(=O)N2N=C(c3ccc(Cl)cc3)CC2c2ccco2)n1 (centres undefined)	i	-5.9	-5.0	0.8	u	-2.8	x	x
CC(=O)C(Sc1nnnn1-c1ccc(O)cc1)c1ccccc1 (centres undefined)	i	-3.6	0.8	-1.7	-7.9	-8.8	-15.3	-4.0
CC(=O)NCCc1nc2cc(NC(=O)Nc3ccccc3)ccc2n1C	i	0.6	11.5	-1.0	-2.2	-12.2	-2.9	-24.8
Cc1ccc(-c2csc(N3CCN(S(=O)(=O)c4ccc5c(c4)NC(=O)CO5)CC3)n2)cc1	i	-8.3	-1.9	-8.5	-7.3	15.2	7.4	-12.4
Cc1cc(C)n(C(=O)CCCCCCCC(=O)n2nc(C)cc2C)n1	i	-11.5	5.2	1.0	-2.8	4.5	x	5.5
CC(C)(C)C(=O)C1=C(O)C(=O)N(Cc2ccccc2)C1c1ccccc1Cl (centres undefined)	i	-9.4	-1.6	2.0	-0.4	-8.6	8.3	-8.4
COC(=O)c1ccccc1NC(=O)c1cc(-c2ccco2)on1	i	4.7	-7.0	0.7	-10.5	6.9	1.8	-12.3
O=C(Nc1ccc(C(=O)NCCCN2CCN(c3ccc(F)cc3)CC2)cc1)C1=CSCCO1	i	-5.8	5.7	-3.6	-3.0	-4.1	5.3	-8.0
Cn1cc(CN2CCCC(CO)C2)c(-c2ccc(Oc3ccccc3)cc2)n1 (centres undefined)	i	-8.8	-2.6	-0.1	-5.0	41.4	-2.1	-0.2
CC(C)=CCc1cc([C@@H]2COc3c(ccc4c3C=CC(C)(C)O4)C2)c(O)cc1O	i	x	-4.4	-26.9	x	-4.9	x	-36.7
